# GALR2 ag: agonists of human galanin receptor 2 (GALR2); hit rate 0.48% among 140,000; O43603; AID 803; GALR2-expressing cells, agonist activation read-out; activation, %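 (tested at 5 µM)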;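 active = above mean plus 3 SD of all compounds, about 5% in these data, not always enough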;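 also: 0% = vehicle buffer wells and 100% = reference agonist at full effect; tested in CHO reporter cells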
# PKD1 kinase inh: blocks activity of human protein kinase D1; Q15139; PKD1 kinase fluorescence polarization assay; inhibition, %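 (about 10 µM by stock and volumes)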; hit rate 0.056% among 200,000; AID 797;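 active = inhibition of 50% or more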;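 also: controls were vehicle for no effect and a reference inhibitor for full effect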
# Target sequence (Q15139 whole entry, looked up): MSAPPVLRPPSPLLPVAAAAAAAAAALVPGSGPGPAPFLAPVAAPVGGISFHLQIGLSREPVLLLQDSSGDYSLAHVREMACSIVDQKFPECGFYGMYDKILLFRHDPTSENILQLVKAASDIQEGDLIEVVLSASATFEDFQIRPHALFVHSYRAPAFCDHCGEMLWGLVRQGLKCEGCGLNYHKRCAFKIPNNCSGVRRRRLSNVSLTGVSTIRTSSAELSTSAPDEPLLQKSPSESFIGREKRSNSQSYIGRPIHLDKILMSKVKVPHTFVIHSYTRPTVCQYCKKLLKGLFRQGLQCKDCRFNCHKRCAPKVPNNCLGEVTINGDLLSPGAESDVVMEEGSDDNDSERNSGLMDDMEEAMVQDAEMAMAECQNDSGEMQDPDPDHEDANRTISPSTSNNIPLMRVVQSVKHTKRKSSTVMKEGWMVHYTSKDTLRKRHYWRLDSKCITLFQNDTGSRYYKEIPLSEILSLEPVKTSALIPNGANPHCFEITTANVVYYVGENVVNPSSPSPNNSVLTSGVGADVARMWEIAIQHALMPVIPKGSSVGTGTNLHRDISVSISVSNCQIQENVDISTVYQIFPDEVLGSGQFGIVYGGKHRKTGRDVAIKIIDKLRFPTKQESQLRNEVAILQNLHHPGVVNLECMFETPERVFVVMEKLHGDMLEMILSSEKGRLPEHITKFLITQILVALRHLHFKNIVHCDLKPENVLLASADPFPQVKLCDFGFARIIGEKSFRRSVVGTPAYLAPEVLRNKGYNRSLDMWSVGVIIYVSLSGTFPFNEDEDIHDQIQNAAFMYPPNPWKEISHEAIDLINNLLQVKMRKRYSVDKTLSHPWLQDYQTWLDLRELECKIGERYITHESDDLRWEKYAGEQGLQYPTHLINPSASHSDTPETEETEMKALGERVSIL
# HSV augment: increases HSV replication in cells; HSV replication augmentation in cells, fold increase; maximum fold increase; hit rate 0.005% among 220,000;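 active = peak rise of 1.5-fold or more in the series; tested in PC3 cells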;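 also: first round at 10 µM; read as green reporter fluorescence; hits show the peak of a series up to 25 µM; 1 = signal of infected wells without compound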
# RGS16-Gao HTS: regulators of human RGS16-Galphao interaction. bead-based flow cytometry RGS16-Galphao binding, fluorescence; actives lie on both sides. binding response (% of control), % at 10 µM. hit rate 0.38% among 220,000. AID 1441;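 active = below 25% or above 175%, edge rows of some plates excepted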;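 also: Galphao activated by GDP with aluminum fluoride before binding; 100% = wells without compound and 0% = beads without RGS; some results beyond the cut were filed as inactive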
# Insulin prom inh: TRM-6 insulin promoter activity inhibition. TRM-6 cells (human fetal islet line), insulin promoter-eGFP reporter, imaging; reporter expression induced with tamoxifen. inhibition, % at 2 µM. AID 1273. hit rate 0.9% among 130,000;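 active = inhibition above the mean plus 3 SD, with well images judged a real hit on visual review, cut at about 60% in these data, passing the limit was not always enough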
# Insulin prom inh cell count: recorded beside Insulin prom inh, whose call it bears; normalized cell count, %; measured here: cell count, toxicity; reference of the scale not given here;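 cells exposed to compound for 48 h; stained nuclei by imaging scaled within each plate; lower means fewer cells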
# HSV augment primary fold: also measured in HSV augment; calls as there; fold increase; compound at 10 µM; measured here: primary screen fold increase 10 uM; tested in PC3 cells;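 GFP signal in the first replicate; 1 = infected wells without compound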
# An asterisk follows results filed as active; i = inactive; / = no result given.
# Screens by letter – A = GALR2 ag; B = PKD1 kinase inh; C = HSV augment; D = HSV augment primary fold; E = RGS16-Gao HTS; F = Insulin prom inh; G = Insulin prom inh cell count
CC(C)NC(NC(=O)/C=C/c1ccccc1)C(Cl)(Cl)Cl (configuration not stated)
  A: /; B: 11; C: i; D: 0.91; E: 100; F: 14; G: 126

CCOc1ccc(-c2nc3n(c(=O)c2C#N)CCCS3)cc1
  A: -0.8; B: -10; C: i; D: 0.97; E: 108; F: -207; G: 115

CCOC(=O)c1csc(NC(=O)CSc2nnnn2-c2cccc(OC)c2)n1
  A: -1.4; B: -2; C: i; D: 0.95; E: 103; F: 3; G: 85

CCOC(=O)N1CCN(c2ccc(C(C)=O)cc2F)CC1
  A: -0.4; B: -3; C: i; D: 1; E: 100; F: 36; G: 105

CCc1ccc(C(=O)Nc2nnn(CC)n2)cc1
  A: -1.6; B: -4; C: i; D: 0.92; E: 109; F: 64; G: 116

CCCCCOP(=O)(c1ccccc1)c1ccccc1
  A: -1.5; B: -6; C: i; D: 1; E: 115; F: /; G: /

CCNC(=O)NC(=O)C(C)OC(=O)c1oc2ccc(OCC)cc2c1C (configuration not stated)
  A: -0.9; B: -11; C: i; D: 0.68; E: 103; F: 14; G: 98

CCOC(=O)N1CCC(NC(=O)C(C)n2c3ccccc3c3cnn(C)c(=O)c32)CC1 (configuration not stated)
  A: -1.1; B: 7; C: i; D: 0.97; E: 101; F: 0; G: 103

CC(=O)Nc1cccc(NC(=O)c2cc(-c3cccnc3)nc3ccc(Br)cc23)c1
  A: -0.7; B: 1; C: i; D: 0.8; E: 99; F: -9; G: 92

O=C(O)/C=C/C(=O)NNc1ncnc2ccccc12
  A: /; B: /; C: i; D: 1; E: 100; F: /; G: /

Cc1cc(C(F)(F)F)c(C#N)c(Sc2ccccc2)n1
  A: -0.8; B: 4; C: i; D: 1; E: 106; F: 50; G: 131

CCCCN(C)C(=O)c1nc2ccccn2c1CN(C)Cc1csc(C)n1
  A: /; B: -6; C: i; D: 0.98; E: 98; F: /; G: /

CC(c1ccco1)N(C(=O)c1ccc(F)cc1)c1ccccn1 (configuration not stated)
  A: /; B: 4; C: i; D: 0.96; E: 104; F: 25; G: 154

COc1ccccc1/C(C)=N/NC(=S)NCc1ccccc1
  A: /; B: -7; C: i; D: 0.98; E: 97; F: 8; G: 94

COc1ccc(/C=N/NC2=NCCCCC2)c(OC)c1
  A: /; B: -1; C: i; D: 0.96; E: 112; F: -67; G: 42

Cc1cc(NC(=O)CSc2nnc3ccccn23)no1
  A: /; B: -2; C: i; D: 0.97; E: 101; F: /; G: /

O=C(COc1ccccc1)N1CCc2ccccc21
  A: -1.8; B: -4; C: i; D: 0.97; E: 96; F: 2; G: 119

O=C(N/N=C\c1cn[nH]c1-c1ccccc1)c1ccc([N+](=O)[O-])cc1
  A: 0.3; B: 13; C: i; D: 0.98; E: 58; F: 0; G: 145

COc1ccc(OCCn2cnc(Cl)c2Cl)cc1
  A: /; B: /; C: i; D: 1; E: 102; F: /; G: /

COc1cc(C(c2sc3nc(C)nn3c2O)N2CCOCC2)cc(OC)c1OC (configuration not stated)
  A: -1.9; B: 2; C: i; D: 0.96; E: 103; F: /; G: /

Cc1nn(Cc2nc(-c3cccs3)no2)c(C)c1Br
  A: -2.7; B: -11; C: i; D: 0.93; E: 105; F: /; G: /

COc1cc(NS(=O)(=O)c2ccc(C)cc2)ccc1-n1cnnn1
  A: -0.8; B: -7; C: i; D: 0.65; E: 93; F: /; G: /

CCOC(=O)c1ccc(NC(=O)C(=O)NCc2ccccn2)cc1
  A: /; B: -11; C: i; D: 0.95; E: 70; F: /; G: /

Cc1cccc(NC(=O)CSc2n[nH]c(-c3ccncc3)n2)c1
  A: -1.1; B: -1; C: i; D: 1; E: 98; F: 9; G: 99

CC(C)C(C(=O)OCC(=O)c1ccc2c(c1)NC(=O)CO2)N1C(=O)c2ccccc2C1=O (configuration not stated)
  A: -0.6; B: 2; C: i; D: 0.94; E: 83; F: /; G: /

# The final six entries of the section before open the next one:
# Screens by letter – A = GALR2 ag; B = PKD1 kinase inh; C = HSV augment; D = HSV augment primary fold; E = RGS16-Gao HTS; F = Insulin prom inh; G = Insulin prom inh cell count
COc1cc(C(c2sc3nc(C)nn3c2O)N2CCOCC2)cc(OC)c1OC (configuration not stated)
  A: -1.9; B: 2; C: i; D: 0.96; E: 103; F: /; G: /

Cc1nn(Cc2nc(-c3cccs3)no2)c(C)c1Br
  A: -2.7; B: -11; C: i; D: 0.93; E: 105; F: /; G: /

COc1cc(NS(=O)(=O)c2ccc(C)cc2)ccc1-n1cnnn1
  A: -0.8; B: -7; C: i; D: 0.65; E: 93; F: /; G: /

CCOC(=O)c1ccc(NC(=O)C(=O)NCc2ccccn2)cc1
  A: /; B: -11; C: i; D: 0.95; E: 70; F: /; G: /

Cc1cccc(NC(=O)CSc2n[nH]c(-c3ccncc3)n2)c1
  A: -1.1; B: -1; C: i; D: 1; E: 98; F: 9; G: 99

CC(C)C(C(=O)OCC(=O)c1ccc2c(c1)NC(=O)CO2)N1C(=O)c2ccccc2C1=O (configuration not stated)
  A: -0.6; B: 2; C: i; D: 0.94; E: 83; F: /; G: /

O=C(CNC(=O)c1ccc(Oc2ccccc2)cc1)OC1CCCCC1=O (configuration not stated)
  A: -2.3; B: 2; C: /; D: /; E: 110; F: -30; G: 84

CN(C)CCCOC(=O)CCc1ccccc1
  A: 0.8; B: -4; C: i; D: 0.93; E: 98; F: 10; G: 51

C=CCOc1ccc2ccccc2c1CNc1ncn[nH]1
  A: 0.0; B: -11; C: i; D: 0.88; E: 105; F: -29; G: 143

O=C(CNCC1CCCCC1)Nc1ccc(N2CCCCC2)cc1
  A: /; B: -9; C: i; D: 0.83; E: 99; F: /; G: /

COc1cc(OC)c(C(=O)NCC(c2cccs2)N(C)C)cc1OC (configuration not stated)
  A: /; B: 4; C: i; D: 1; E: 117; F: 36; G: 175

CCCCOc1cccc(C(=O)NC(=S)Nc2cccc(C(F)(F)F)c2)c1
  A: 0.0; B: 10; C: i; D: 0.97; E: 102; F: 0; G: 122

O=C(O)c1ccc(NC2=C/C(=N/S(=O)(=O)c3ccccc3)c3ccccc3C2=O)cc1
  A: /; B: -2; C: i; D: 0.61; E: 79; F: /; G: /

CCOC(=O)c1c(NC(NC(C)=O)C(Cl)(Cl)Cl)sc2c1CCCC2 (configuration not stated)
  A: -1.3; B: 6; C: i; D: 0.95; E: 91; F: /; G: /

CCc1ccc2[nH]c(=O)c(CN(Cc3ccc(F)cc3)C(c3nnnn3CCN3CCOCC3)C(C)C)cc2c1 (configuration not stated)
  A: -1.8; B: -4; C: i; D: 0.87; E: 100; F: -10; G: 124

Cc1ccc(C(=O)N/N=C\c2ccc(-c3ccc([N+](=O)[O-])cc3)o2)cn1
  A: /; B: /; C: i; D: 0.87; E: 99; F: /; G: /

Cc1c(Cl)cccc1NC(=S)NCc1ccc2c(c1)OCO2
  A: 0.4; B: -5; C: i; D: 0.95; E: 108; F: -43; G: 110

O=c1c(N2CCCCC2)coc2ccccc12
  A: -2.4; B: -11; C: i; D: 1; E: 101; F: 28; G: 129

O=C(NCC1CCCO1)c1ccc(CS(=O)(=O)c2ccc(Cl)cc2)o1 (configuration not stated)
  A: 0.7; B: -3; C: i; D: 1; E: 108; F: 29; G: 163

CCOc1ccccc1C1CC(=O)Nc2cc3c(cc21)OCCO3 (configuration not stated)
  A: 0.9; B: 4; C: i; D: 0.71; E: 75; F: 21; G: 89

Fc1ccc(Cn2nnnc2C(c2cccs2)N2CCN(C3CCCCC3)CC2)cc1 (configuration not stated)
  A: /; B: -5; C: i; D: 1; E: 90; F: /; G: /

CCCCCCOc1ccc(/C=c2\s/c(=C(/C#N)C(=O)NCc3ccco3)n(-c3ccccc3)c2=O)cc1
  A: -0.2; B: -12; C: i; D: 1.1; E: 109; F: -14; G: 68

COc1ccc(C)cc1NC(=S)N1CCN(S(C)(=O)=O)CC1
  A: 0.0; B: -2; C: i; D: 0.88; E: 69; F: -16; G: 92

COc1ccc(CN2CCN(C(=O)CN3C(=O)C4C5C=CC(C5)C4C3=O)CC2)c(OC)c1OC (configuration not stated)
  A: -1.4; B: 4; C: i; D: 0.96; E: 100; F: -18; G: 143

NC(=O)c1ccc(N2CCN(c3ccccc3F)CC2)c([N+](=O)[O-])c1
  A: /; B: -5; C: i; D: 1.1; E: 98; F: /; G: /

COc1ccc(NC(=O)CSc2nncc3ccccc23)cc1
  A: /; B: -2; C: i; D: 0.9; E: 104; F: 17; G: 191

CC(C)COc1ccc(C(=O)NC(CC(C)C)C(=O)O)cc1 (configuration not stated)
  A: -1.6; B: -7; C: i; D: 0.92; E: 105; F: /; G: /

CC(NC(N)=O)C(=O)OCc1ccc(Cl)cc1Cl (configuration not stated)
  A: 1.6; B: -3; C: i; D: 1.1; E: 85; F: -13; G: 140

O=C1CCCc2c1cnc1ncnn21
  A: /; B: 4; C: i; D: 0.94; E: 99; F: 54; G: 157

COC(=O)c1cccc2c1NC(=O)C2=O
  A: /; B: /; C: i; D: 1.2; E: 102; F: /; G: /

O=C(O)CNC(=O)C(Cc1ccccc1)NC(=O)OCc1ccccc1 (configuration not stated)
  A: /; B: -5; C: i; D: 0.92; E: 103; F: 33; G: 130

CCOC(=O)C1=C(O)CSC1=Nc1cccc(Cl)c1
  A: -1.5; B: 10; C: i; D: 0.99; E: 102; F: 6; G: 89

CCCCNC(=S)N=Nc1c(O)[nH]c2ccccc12
  A: /; B: 1; C: i; D: 0.88; E: 98; F: /; G: /

CC(=O)c1ccc(NC(=S)NC(=O)CC(C)C)cc1
  A: 0.1; B: -6; C: i; D: 0.99; E: 22*; F: 21; G: 124

COc1ccccc1N1CCN(/N=C/C(Cl)=C/c2ccccc2)CC1
  A: /; B: /; C: i; D: 0.94; E: 97; F: /; G: /

COc1cc(/C=N\NC(=O)CNC(=O)C2COc3ccccc3O2)ccc1O (configuration not stated)
  A: 0.1; B: -2; C: /; D: /; E: 99; F: /; G: /

C/C(=N\Nc1ccc(F)cc1F)c1cccs1
  A: /; B: -4; C: i; D: 0.98; E: 108; F: /; G: /

CC(=O)c1cccc(NC(=O)CC2Oc3ccc(C)cc3NC2=O)c1 (configuration not stated)
  A: -2.7; B: 4; C: i; D: 1.1; E: 40; F: /; G: /

CC(C)CNC(=O)COC(=O)c1cc(S(=O)(=O)N2CCCCC2)ccc1N1CCOCC1
  A: -1.1; B: -11; C: i; D: 1; E: 94; F: 33; G: 116

Cc1c(C(=O)N2CCOCC2)[nH]c2c1C(=O)CC(c1ccccc1Cl)C2 (configuration not stated)
  A: 0.3; B: -3; C: i; D: 0.64; E: 100; F: -20; G: 83

COC(=O)c1[nH]c2ccc(C)cc2c1NC(=O)CN1CCc2cc(OC)c(OC)cc2C1
  A: 0.0; B: 0; C: i; D: 0.92; E: 98; F: 19; G: 106

Fc1ccc(-c2nnc(CN3CCN(c4ncc(C(F)(F)F)cc4Cl)CC3)o2)cc1
  A: 3.4; B: -4; C: i; D: 0.96; E: 102; F: 26; G: 121

O=C(Nc1c2c(nn1-c1ccccc1)CS(=O)C2)c1ccc(S(=O)(=O)N2CCOCC2)cc1 (configuration not stated)
  A: /; B: -1; C: i; D: 1; E: 102; F: -6; G: 129

CCNC(=O)n1cc(-n2cncn2)c(-c2ccc(Cl)cc2)n1
  A: /; B: -1; C: i; D: 0.92; E: 111; F: /; G: /

Cc1nc2ccccc2n1CCc1nc2c3ccccc3nc(=S)n2[nH]1
  A: -0.8; B: 1; C: i; D: 0.93; E: 105; F: -24; G: 89

CC(=O)c1ccc(CCCCCCCCCC(=O)O)s1
  A: -0.4; B: -5; C: i; D: 1.1; E: 98; F: -29; G: 110

COc1ccc(C(=O)Nc2ccc(Cl)cn2)cc1Cl
  A: 2.4; B: -4; C: i; D: 0.7; E: 102; F: /; G: /

Clc1ccc(Nc2ncnc3c2nnn3Cc2ccccc2)cc1
  A: /; B: /; C: i; D: 0.99; E: 100; F: /; G: /

CC(NC(=O)Nc1nnc(C(F)(F)F)s1)N1C(=O)C2C3C=CC(C3)C2C1=O (configuration not stated)
  A: -0.1; B: 0; C: i; D: 0.87; E: 103; F: -11; G: 76

Cn1nnnc1Sc1ccc([N+](=O)[O-])cc1Cl
  A: /; B: -2; C: i; D: 0.91; E: 99; F: -7; G: 113

CN1CCN(C(=O)/C=C/c2ccc3c(c2)OCO3)CC1
  A: -0.1; B: 0; C: i; D: 1.1; E: 102; F: -40; G: 104
